Screens as filed in PubChem BioAssay.
StopGo RLuc – FMDV 2A StopGo reporter, Renilla signal; HEK cells with a luciferase reporter of 2A StopGo recoding; Potency, µM (series often up to 57.5 µM), for the others: at the highest dose signal change, negative = less light; hit rate 0.32% among 120,000; active means well fitted falling curve with a large enough effect; inconclusive means small, poorly fitted or top-dose-only effect; inactive means no such curve, though single readings can be large or run the other way; further: nearly all actives have a fitted effect of over 55% in size; overnight with compound
StopGo FLuc – lowers the firefly signal of an FMDV 2A StopGo reporter. hit rate 0.23% among 120,000. AID 1745856. Potency, µM (doses to about 57.5 µM), for the others: at the highest dose signal change, negative = less light. HEK cells with a luciferase reporter of 2A StopGo recoding; active = well fitted falling curve with a large enough effect; inconclusive = small, poorly fitted or top-dose-only effect; inactive = no such curve, though single readings can be large or run the other way; further: nearly all actives have a fitted effect of over 60% in size; overnight with compound
Active calls of the source: *; ? = inconclusive; & = joins results of further samples; [ ] = another dose, or the depositor's remark. On the % scale 0 is the no-effect control and ±100 the full control effect; potency means the concentration at half of the fitted maximal effect.

SMILES | StopGo RLuc | StopGo FLuc
CC(C)N(C(=O)CSc1nnc(N)s1)C1CCCCC1 | -3% | -9%
CCCn1c(=O)c2ccccc2n(CC(=O)N(C)c2cccc(Cl)c2)c1=O | 57%[activator] | 90%[activator]
Cc1ccc(-c2nc(C#N)c(NCC(c3cccs3)N3CCOCC3)o2)cc1 (stereo not given) | -16% | -15%
Cc1ccc(C(=O)c2cccc([N+](=O)[O-])c2)cc1C | 13% | ?
COc1cccc(-n2cnnc2SC(C)C(=O)Nc2cccc(C(C)=O)c2)c1 (stereo not given) | 2% | 14%
Cc1ccc(S(=O)(=O)N(CC(=O)Nc2ccc3c(c2)OCO3)c2ccc(C)c(Cl)c2)cc1 | 303%[activator] | 0%
Cc1cccc2nc(CSc3ccc4ccccc4n3)cc(=O)n12 | 8% | 186%[activator]
NC(=O)COc1ccc(NC(=O)c2nn(Cc3ccccc3)c(=O)c3ccccc23)cc1 | 75%[activator] | 69%[activator]
O=C(c1cc(-c2cccs2)nc2ccccc12)N1CCN(c2cccc(C(F)(F)F)c2)CC1 | 11% | 3%
CC(=O)NC(NC(C)=O)c1ccccc1F | -3% | 0%
O=C(NCc1cccs1)c1ccc(CSc2nc3ccncc3n2Cc2cccc(F)c2)cc1 | 49%[activator] | -8%
Brc1ccc(C2=NOC(c3ccc(Br)cc3)C2)cc1 (stereo not given) | 14% | 53%[activator]
CCOC(=O)CCS(=O)(=O)c1nc(-c2ccccc2)cc(C(F)(F)F)n1 | ? | ?
COC(=O)c1cc(C2CC2)nc2c1c(C)nn2CC(=O)NC(C)C | 0% | 4%
C=CCOc1ccc(/C=C/C(=O)c2ccc(C#N)cc2)cc1 | 33%[activator] | 0%
COC(=O)Cc1c(C)c2cc3c(c(C)c2oc1=O)OCN(CCc1ccccc1F)C3 | -9% | 41%[activator]
Cc1sc2ncn(CC(=O)N3CCN(c4ccccc4)CC3)c(=O)c2c1S(=O)(=O)N1CCN(c2ncccn2)CC1 | -10% | -9%
CN(CC(=O)NC(C)(C)C)C(=O)c1cc2ccc(Br)cc2[nH]1 | -29% | -10%
CC(=O)Nc1ccc(S(=O)(=O)N2CCN(c3ccc(NCc4ccccc4)nn3)CC2)cc1 | 48%[activator] | 37%
Cc1cc(C)n(-c2nc(C)c(C)c(=O)n2CC(=O)Nc2ccc([N+](=O)[O-])cc2)n1 | -9% | -17%
CCOc1ccc(NC(=O)c2sc3nc4n(c(=O)c3c2C)CCCC4)cc1 | 5% | 12%
COc1cccc(N2CCN(C(=O)c3cnc4c(-c5ccccc5)c(C)nn4c3C)CC2)c1 | -14% | -20%
Cc1nc2c(-c3ccccc3)c(C)nn2c(C)c1CCC(=O)NC(C)c1ccccc1 (stereo not given) | 4% | -1%
O=C(Nc1cccc(F)c1)C1CC(=O)N(Cc2ccccn2)c2nc3ccccc3n21 (stereo not given) | 13% | 4%
CCc1ccccc1NC(=O)CSc1nnc(-c2cc3cccc(OC)c3o2)n1N | -4% | 2%
New compounds follow
SMILES | StopGo RLuc | StopGo FLuc
COc1ccc(Nc2oc(-c3ccc(COc4ccccc4C)o3)nc2C#N)cc1 | 1% | 6%
CCc1ccc(CNC(=O)C2Cc3cc(S(=O)(=O)N4CCCCCC4)ccc3N2C(C)=O)cc1 (stereo not given) | -11% | -14%
CCC(Sc1nc2nccnc2c(=O)n1Cc1ccccc1)C(=O)Nc1cc(C)ccc1OC (stereo not given) | 75%[activator] | 41%[activator]
CN(Cc1ccccc1)C(=O)c1cc2cc(F)ccc2[nH]1 | 61%[activator] | 80%[activator]
CCC(=O)N1c2ccc(S(=O)(=O)CCC(=O)N3CCN(c4ccc(F)cc4)CC3)cc2CC1C (stereo not given) | 0% | -4%
CCc1ccc(CN(C)S(=O)(=O)c2cccc(Br)c2)cc1 | 98%[activator] | 16%
CC(C)CN(C)C(=O)c1ccccc1-c1ncc(-c2ccccc2F)o1 | 52%[activator] | -4%
O=C(COC(=O)c1cc(-c2cccs2)nc2ccccc12)c1ccccc1 | -14% | -10%
COc1ccccc1C1C(C(N)=O)=C(C)Nc2nc(SCc3ccccc3F)nn21 (stereo not given) | -13% | -16%
O=C(CS(=O)(=O)c1cccc2nsnc12)Nc1ccc(F)cc1 | 67%[activator] | 20%
COc1ccccc1Cn1ccnc1SCC(=O)Nc1ccc(C)cc1 | 42%[activator] | 0%
CC1CCC(NC(=O)C2(c3ccc(F)cc3)CCC2)CC1 (stereo not given) | 26% | 0%
Cc1[nH]c(C)c(S(=O)(=O)Nc2cccc3c2CCCC3)c1C(=O)N1CCCCC1 | 168%[activator] | -6%
CC1(C)CC(=O)c2cc(C#N)c(SCc3ccc(Cl)cc3)nc2C1 | -3% | 21%
COc1ccc(-n2ccn(Cc3ccc(C)cc3)c(=O)c2=O)cc1OC | -14% | -12%
COc1ccc(CCC(=O)NC2CC(=O)N(c3cccc(F)c3)C2)cc1 (stereo not given) | 9% | -7%
CCOC(=O)c1c(S(=O)(=O)N2CCCC(C(=O)Nc3ccc(F)cc3F)C2)c(C)n(C)c1C (stereo not given) | -2% | 0%
COc1cccc(C2C(=O)N(C3CCCCC3)CC(=O)N2Cc2ccc(Cl)cc2)c1 (stereo not given) | -6% | -12%
CC(C)CCn1c(N2CCN(c3ccccc3)CC2)nc2c1c(=O)[nH]c(=O)n2C | -4% | -3%
Cc1cc(C)cc(-n2c(SCC(N)=O)nc3c([nH]c4ccccc43)c2=O)c1 | 40%[activator] | 41%[activator]
CC(C)(C)c1ncc(NC(=O)c2cc[n+]([O-])cc2)cn1 | 12% | 13%
CCOCCn1c(N2CCCC2)nc2c1c(=O)[nH]c(=O)n2C | 3% | 5%
COc1ccc(CCC(=O)NCCc2csc(-c3ccc(Cl)cc3)n2)cc1 | -19% | 22%
CC1=C(C(=O)OC(C)C)C(c2cccc([N+](=O)[O-])c2)C(C(=O)OC2CN(C(c3ccccc3)c3ccccc3)C2)=C(N)N1 (stereo not given) | -10% | -9%[11.5 µM]
COc1cc(Nc2c(C#N)cnc3c(OC)cccc23)cc(OC)c1OC | 39%[activator] | 43%[activator]
Going on with the list.
SMILES | StopGo RLuc | StopGo FLuc
Cc1cc(C)c2oc(C(=O)Nc3ccc(S(N)(=O)=O)cc3)cc(=O)c2c1 | 2% | -2%
Cc1ccc(Nc2nc(N)c(C(=O)c3cc(C)ccc3C)s2)cc1 | 0% | 0%
N#Cc1c2n(c(=O)n(CCOc3ccccc3)c1=O)CCC2 | -10% | 26%
Cc1ccc(-c2nnc(SCC(=O)c3ccc4c(c3)NC(=O)CO4)o2)cc1C | -6% | 5%
Cc1[nH]c2ccccc2c1/C=C/[N+](=O)[O-] | 7% | 5%
Cc1ccc2cccc(NC(=O)C(C)Oc3ccc(C)c(C)c3)c2n1 (stereo not given) | 16%&12% | 12%&12%
O=C(Nc1ccccc1)N(Cc1ccc(Cl)cc1)c1ccccn1 | 19% | 0%
CN(Cc1ccc(-c2ccc(Br)cc2)o1)C(=O)CSc1nnc(C2CC2)n1C1CC1 | -14% | -14%
CC(C)Cn1c(CN2CCCC(C)C2)nc2c1c(=O)n(C)c(=O)n2C (stereo not given) | -4% | -4%
COc1ccc(CCNC(=O)CN(c2ccc(Br)c(C)c2)S(C)(=O)=O)cc1OC | 0% | 7%
O=C(OCCc1ccccc1)c1cccc([N+](=O)[O-])c1 | -6% | 210%[activator]
COC(=O)c1ccc(COc2ccc(C(=O)OC)cc2Br)cc1 | 0% | 0%
CCCN(CCC)CCNC(=O)c1sc2nc3n(c(=O)c2c1C)CCCCC3 | -9% | -11%
COc1cc(/C=C/c2cc(C(=O)O)c3ccccc3n2)ccc1OCCC(C)C | -9%[1.06 µM] | ?
COc1ccc2[nH]c(C(=O)NCc3cccnc3)c(C)c2c1 | 0% | 0%
CCOC(=O)CNC(=O)c1ccc(-c2nn(C)c(=O)c3ccccc23)cc1 | 15% | 17%
CCOC(=O)c1ccc(NS(=O)(=O)c2ccc3c(c2)n(C)c(=O)n3C)cc1 | 111%[activator] | -23%
C=CCn1c(SC)nc2c1c(=O)n(C)c(=O)n2C | -6% | 2%
Cc1c(OCC(=O)Nc2cc(Cl)cc(Cl)c2)c(=O)ccn1C | 5% | 172%[activator]
CC(=O)c1ccc(N2C(=O)Nc3ccccc3S2(=O)=O)cc1 | 440%[activator] | 53%[activator]
COc1ccc(-c2ccc(C#N)c(SCC(=O)NCCc3ccc(OC)c(OC)c3)n2)cc1 | -3% | 27%
Cc1nnc(NC(=O)c2ccc3ccn(C)c3c2)s1 | 108%[activator] | 293%[activator]
COC(=O)c1cc2occc2n1CC(=O)Nc1ccc(C(C)C)cc1 | -10% | 5%
Cc1noc(C)c1CN1CCN(C(=O)c2cc(C3CC3)nn2-c2ccccc2)CC1 | -6% | -5%
O=C(Nc1cccc(-c2nc3ccccc3s2)c1)C1CCN(C(=O)c2ccco2)CC1 | ? | -51%
(continued)
SMILES | StopGo RLuc | StopGo FLuc
COc1ccc2cc(C(=O)OCC(=O)NCC3CCCO3)c(C)nc2c1 (stereo not given) | -14% | 38%[activator]
COC(=O)c1sccc1S(=O)(=O)N1CCN(c2cc(Cl)ccc2C)CC1 | 5% | -10%
CCC(Cc1ccccc1)NC(=O)c1ccc2nc(N3CCC(C)CC3)sc2c1 (stereo not given) | -1% | ?
O=C(/C=N/O)Nc1ccccc1[N+](=O)[O-] | -6% | 11%
COCCn1c(SCC(=O)c2c(C)[nH]c3ccccc23)nc2cc(C(=O)NC(C)C)ccc2c1=O | -13% | -19%
NC1CCN(c2cccc(Cl)n2)CC1 | 13% | 13%[11.5 µM]
COC(=O)c1nnn(CC(=O)Nc2ccc(C)cc2)c1C(=O)OC | -11% | -12%
Cc1cccc(NC(=O)CN2C(=O)CSc3ccc(S(=O)(=O)N4CCCC4)cc32)c1C | 59%[activator] | 32%[activator]
COc1ccc(-c2nc(C)c(CCNC(=O)c3cccc(C)c3)s2)cc1OC | 32%[activator] | 342%[activator]
CSc1ccccc1C(=O)NC(C)c1ccccc1 (stereo not given) | 5% | -3%
Cn1c(=O)c2c(nc(N3CCCCCC3)n2CCSc2nc3ccccc3o2)n(C)c1=O | -13% | -5%
CCCCOc1ccc(CNC(=O)c2cc3n(n2)CCCN(Cc2ccc(C)cc2)C3=O)cc1 | -14% | 14µM*
COc1ccc(S(=O)(=O)N2CCN(C)CC2)cc1NC(=O)c1ccc(CN2CCCC2=O)cc1 | 11% | -8%
